NPYLR7 agonist = mosquito NPYLR7 agonism. HEK293T NPYLR7/Galpha15, GCaMP6s calcium fluorescence. actives 0.15% (n = 270,000). AID 1259423. activation, % at 10 µM; in the data active = activation above about 40%;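 note: 0% = vehicle and 100% = reference agonist at the receptor; some compounds past the cut are filed as inactive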
NPYLR7 agonist max-min = also measured in NPYLR7 agonist; calls as there; activation, %; measured here: Max-Min RFU normalised activation; some inactives read as strong as hits;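 span of the calcium signal over five minutes; 0% = vehicle and 100% = native peptide agonist; compound fluorescence can raise it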
Starred values were filed as active, the others as inactive. A portion of the library (hit frequency here may not be typical).

What do the screens show for `CCc1ccc[n+](C2=C(c3c(CC)[nH]n(-c4ccc(F)cc4)c3=O)C(=O)N(CC3CCCO3)C2=O)c1` (configuration not stated)?
NPYLR7 agonist: -4; NPYLR7 agonist max-min: 3

Results for COCCOC(=O)C1=C(C)NC2=C(C(=O)CC(c3ccccc3)C2)C1c1ccc(OCc2ccccc2)cc1 (configuration not stated) ?
NPYLR7 agonist: 19; NPYLR7 agonist max-min: 22

What do the screens show for `CC(=O)Nc1ccc(CN(C)c2c(C)nc3ccc(C(=O)N(C)Cc4ccco4)cn23)cc1`?
NPYLR7 agonist: 10; NPYLR7 agonist max-min: -1

Results for Cc1cc2cc(CCNC(=O)CC3CCCCC3)c(=O)[nH]c2cc1C ?
NPYLR7 agonist: 2; NPYLR7 agonist max-min: 8

How did NC(=O)Cn1cnc2c(nnn2-c2ccc(Br)cc2)c1=O do in these assays?
NPYLR7 agonist: -9; NPYLR7 agonist max-min: -7

How did Cc1ccc(C)c(CSc2ccc3nnc(CCNS(=O)(=O)c4ccccc4)n3n2)c1 do in these assays?
NPYLR7 agonist: 5; NPYLR7 agonist max-min: -4

What do the screens show for `CC(C)N1CCC1(C)C(=O)Nc1cccc2ccccc12` (configuration not stated)?
NPYLR7 agonist: -7; NPYLR7 agonist max-min: -7

Results for O=C1C=CC(=O)N1c1cccc(Cl)c1 ?
NPYLR7 agonist: 5; NPYLR7 agonist max-min: -7

Results for CCOCc1cn(CC(=O)c2ccc(CC)cc2)c(C)nc1=N ?
NPYLR7 agonist: 2; NPYLR7 agonist max-min: -2

Results for O=C1OCCN1CCn1ccnc1-c1ccc(CO)o1 ?
NPYLR7 agonist: 5; NPYLR7 agonist max-min: 2

How did O=C(CCN(CCCN1CCOCC1)c1nc(-c2cccs2)nc2ccccc12)Nc1ccc(F)cc1 do in these assays?
NPYLR7 agonist: -2; NPYLR7 agonist max-min: 10

How did Cc1sc(=O)n(CCOC(C)(C)C)c1C do in these assays?
NPYLR7 agonist: 19; NPYLR7 agonist max-min: 9

How did CCOc1ccc(S(=O)(=O)N2CCN(C(=O)CSc3nc4ccccc4o3)CC2)cc1 do in these assays?
NPYLR7 agonist: 5; NPYLR7 agonist max-min: 0

Results for CS(=O)(=O)NCCSCC(O)c1ccccc1 (configuration not stated) ?
NPYLR7 agonist: -1; NPYLR7 agonist max-min: -3

What do the screens show for `O=C(NC(=S)Nc1nc2c(s1)CCCC2)C1CCCCC1`?
NPYLR7 agonist: -3; NPYLR7 agonist max-min: -11

How did CC(C)C(=O)Nc1cc(C(F)(F)F)ccc1-n1ccnc1 do in these assays?
NPYLR7 agonist: -3; NPYLR7 agonist max-min: -4

What do the screens show for `CC(c1ccccn1)N(C)Cc1cn[nH]c1C(=O)O` (configuration not stated)?
NPYLR7 agonist: 3; NPYLR7 agonist max-min: 2

Results for COc1ccc([N+](=O)[O-])cc1/C=C1\C(=O)N(c2ccccc2)N=C1C ?
NPYLR7 agonist: 0; NPYLR7 agonist max-min: -12

What do the screens show for `O=C(C1CCC1)N(CCN1CCOCC1)Cc1nccn1Cc1ccccc1F`?
NPYLR7 agonist: 5; NPYLR7 agonist max-min: 12

What do the screens show for `COC(=O)CSc1ncnc2c1nnn2-c1ccc(F)cc1`?
NPYLR7 agonist: 12; NPYLR7 agonist max-min: 16

How did CCCCN(Cc1nccn1C)c1nc2ccccc2c2nnc(C3CC3)n12 do in these assays?
NPYLR7 agonist: 0; NPYLR7 agonist max-min: 0

Results for CCCCn1c(N)c(N(CCC(C)C)C(=O)CCl)c(=O)[nH]c1=O ?
NPYLR7 agonist: -10; NPYLR7 agonist max-min: -14

What do the screens show for `COc1cc(C(=O)C(C)C(=O)N(Cc2ccccc2)Cc2ccccc2)cc(OC)c1OC` (configuration not stated)?
NPYLR7 agonist: 3; NPYLR7 agonist max-min: 5

What do the screens show for `CCOC(=O)C1=C(C)NC2=C(C(=O)CC(c3ccc(OC)cc3)C2)C1c1ccccc1F` (configuration not stated)?
NPYLR7 agonist: 0; NPYLR7 agonist max-min: -2

What do the screens show for `Cc1cnc(NC(=O)C2CCCCN2C(=O)C(C)C)s1` (configuration not stated)?
NPYLR7 agonist: 6; NPYLR7 agonist max-min: 8

Results for CC(C)c1nc(CN(C)C(=O)C2CC(=O)N(Cc3ccncc3)C2)cs1 (configuration not stated) ?
NPYLR7 agonist: 7; NPYLR7 agonist max-min: 5

How did Cc1cccc(-n2c(CNC(=O)c3ccco3)nnc2SCC(=O)Nc2nnc(C)s2)c1 do in these assays?
NPYLR7 agonist: -8; NPYLR7 agonist max-min: -17

Results for CNS(=O)(=O)c1ccc(CN(C)CCOc2ccc(C)cc2C)cc1 ?
NPYLR7 agonist: 5; NPYLR7 agonist max-min: -3

What do the screens show for `OCCC1CN(Cc2cc3ccccc3[nH]2)CCN1Cc1ccc(F)c(F)c1` (configuration not stated)?
NPYLR7 agonist: 1; NPYLR7 agonist max-min: 0

How did COc1ccc(C)cc1S(=O)(=O)NCCc1csc2nc(-c3ccc(C)cc3)nn12 do in these assays?
NPYLR7 agonist: 11; NPYLR7 agonist max-min: 9

How did CCc1ccc(-c2noc(CN3CCN(S(=O)(=O)c4ccccc4)CC3)n2)cc1 do in these assays?
NPYLR7 agonist: -5; NPYLR7 agonist max-min: -6

What do the screens show for `Cc1cn2c(=O)c(C(=O)Nc3ccccc3NC(=O)c3cnc4sc(C)cn4c3=O)cnc2s1`?
NPYLR7 agonist: 3; NPYLR7 agonist max-min: -2

Results for CCN(CCn1cccn1)Cc1cn(Cc2ccccc2)nc1-c1ccc2c(c1)OCO2 ?
NPYLR7 agonist: -6; NPYLR7 agonist max-min: -8

What do the screens show for `COc1ccc2oc(C(=O)NC3=NCCS3)c(C)c2c1`?
NPYLR7 agonist: -13; NPYLR7 agonist max-min: -11

Results for CC(=O)Nc1cnc(-c2ccc(F)cc2)cn1 ?
NPYLR7 agonist: 3; NPYLR7 agonist max-min: 1

How did Cc1ccc(Oc2cnn(-c3ccc(Cl)c(Cl)c3)c(=O)c2Nc2ccc(C(=O)O)cc2)cc1 do in these assays?
NPYLR7 agonist: 31; NPYLR7 agonist max-min: 29

Results for COc1ccc(C2(C(=O)N3CCN4C(=O)CN(C)C(=O)C4C3)CC2)cc1 (configuration not stated) ?
NPYLR7 agonist: -11; NPYLR7 agonist max-min: -7

What do the screens show for `Cc1cc(NC(=O)c2ccco2)sc1C`?
NPYLR7 agonist: 8; NPYLR7 agonist max-min: 14

Results for O=C1NCCCC[C@@H]1Nc1ccc(-c2nc(Cc3ccccc3)no2)cn1 ?
NPYLR7 agonist: 14; NPYLR7 agonist max-min: 10

How did O=C(c1cnc(Cl)c(Cl)c1)N(CC(F)(F)F)C1CCCC1 do in these assays?
NPYLR7 agonist: 6; NPYLR7 agonist max-min: 4

Next part; it opens with the five that closed the last part.
How did Cc1ccc(Oc2cnn(-c3ccc(Cl)c(Cl)c3)c(=O)c2Nc2ccc(C(=O)O)cc2)cc1 do in these assays?
NPYLR7 agonist: 31; NPYLR7 agonist max-min: 29

Results for COc1ccc(C2(C(=O)N3CCN4C(=O)CN(C)C(=O)C4C3)CC2)cc1 (configuration not stated) ?
NPYLR7 agonist: -11; NPYLR7 agonist max-min: -7

What do the screens show for `Cc1cc(NC(=O)c2ccco2)sc1C`?
NPYLR7 agonist: 8; NPYLR7 agonist max-min: 14

Results for O=C1NCCCC[C@@H]1Nc1ccc(-c2nc(Cc3ccccc3)no2)cn1 ?
NPYLR7 agonist: 14; NPYLR7 agonist max-min: 10

How did O=C(c1cnc(Cl)c(Cl)c1)N(CC(F)(F)F)C1CCCC1 do in these assays?
NPYLR7 agonist: 6; NPYLR7 agonist max-min: 4

How did O=c1c2cc3ccccc3oc-2nn1-c1ccccc1 do in these assays?
NPYLR7 agonist: 2; NPYLR7 agonist max-min: 0

How did Cc1cc(CN2CCN(C3Cc4ccccc4C3)CC2)n[nH]1 do in these assays?
NPYLR7 agonist: 12; NPYLR7 agonist max-min: 8

How did O=C(Nc1nnc(-c2ccc3c(c2)OCO3)s1)C1CCCN1C(=O)Nc1cccc(C(F)(F)F)c1 (configuration not stated) do in these assays?
NPYLR7 agonist: 10; NPYLR7 agonist max-min: -1

How did Cc1ccccc1C(=O)NCCn1nc(-c2ccc(Cl)cc2)ccc1=O do in these assays?
NPYLR7 agonist: 0; NPYLR7 agonist max-min: -1

How did COC(=O)c1ccc(N=C2SC(C(=O)Nc3ccccc3)CC(=O)N2C)cc1 (configuration not stated) do in these assays?
NPYLR7 agonist: -1; NPYLR7 agonist max-min: -4

What do the screens show for `CC(=O)N1CCOC(Cc2cccc(C(F)(F)F)c2)C1` (configuration not stated)?
NPYLR7 agonist: -4; NPYLR7 agonist max-min: -15

How did O=C(c1ccc(-c2cc(-c3ccc(Cl)cc3Cl)[nH]n2)cc1)N1CCC(Cc2ccccc2)CC1 do in these assays?
NPYLR7 agonist: -3; NPYLR7 agonist max-min: -10

Results for NC(=O)CSc1nnc2ccc(-c3cccnc3)nn12 ?
NPYLR7 agonist: -8; NPYLR7 agonist max-min: -7

What do the screens show for `CC(=O)NC(NCc1ccc(F)cc1)(C(F)(F)F)C(F)(F)F`?
NPYLR7 agonist: 6; NPYLR7 agonist max-min: 7

What do the screens show for `Cc1ccccc1C(=O)N1CCN(C(C(=O)NCCCN2CCOCC2)C2CCCC2)CC1` (configuration not stated)?
NPYLR7 agonist: -6; NPYLR7 agonist max-min: 1

How did COCCCN(CC(=O)Nc1cc(C(C)(C)C)nn1-c1cccc(C)c1)S(=O)(=O)c1ccc(F)cc1 do in these assays?
NPYLR7 agonist: 24; NPYLR7 agonist max-min: 27

Results for CN(C)c1nc2c(c(N3CCn4cncc4C3)n1)CCCC2 ?
NPYLR7 agonist: 21; NPYLR7 agonist max-min: 9

How did Cc1cccc(Nc2ccc(NCCNS(=O)(=O)c3ccc(F)cc3)nn2)n1 do in these assays?
NPYLR7 agonist: 11; NPYLR7 agonist max-min: 2

What do the screens show for `O=C1CCN(C(=O)c2cc3cn(CC4CCCO4)cc3cn2)CCN1` (configuration not stated)?
NPYLR7 agonist: 14; NPYLR7 agonist max-min: 3

Results for COC(=O)c1sc(N)nc1C ?
NPYLR7 agonist: 4; NPYLR7 agonist max-min: 2

Results for CCOc1ccccc1-n1cnnn1 ?
NPYLR7 agonist: 9; NPYLR7 agonist max-min: 7

What do the screens show for `Cc1cc2ccccc2n1CCC(=O)NCc1nc(CC(C)C)no1`?
NPYLR7 agonist: 12; NPYLR7 agonist max-min: 3

What do the screens show for `COc1cccc(CN2CCNC(=O)C2CC(=O)NCCc2cccc(C)n2)c1OC` (configuration not stated)?
NPYLR7 agonist: 3; NPYLR7 agonist max-min: 2

Results for COc1cc(NC(=O)C(C2CCCC2)N2CCN(C(=O)c3ccc(F)cc3)CC2)cc(OC)c1 (configuration not stated) ?
NPYLR7 agonist: -2; NPYLR7 agonist max-min: 5

Results for Cc1[nH]nc2ncc(C(=O)NC3CCCC(C)C3C)cc12 (configuration not stated) ?
NPYLR7 agonist: 7; NPYLR7 agonist max-min: 6

Looked up by structure from the list above, 4 records:
Results for CN(C)c1nc2c(c(N3CCn4cncc4C3)n1)CCCC2 ?
NPYLR7 agonist: 21; NPYLR7 agonist max-min: 9

Results for COC(=O)c1sc(N)nc1C ?
NPYLR7 agonist: 4; NPYLR7 agonist max-min: 2

What do the screens show for `Cc1cc2ccccc2n1CCC(=O)NCc1nc(CC(C)C)no1`?
NPYLR7 agonist: 12; NPYLR7 agonist max-min: 3

How did COCCCN(CC(=O)Nc1cc(C(C)(C)C)nn1-c1cccc(C)c1)S(=O)(=O)c1ccc(F)cc1 do in these assays?
NPYLR7 agonist: 24; NPYLR7 agonist max-min: 27

Continued.
Results for O=C1NC2(CCN(Cc3cccc(C(F)(F)F)c3)CC2)Nc2cc(Cl)ccc21 ?
NPYLR7 agonist: 2; NPYLR7 agonist max-min: 17

Results for CCOc1ccc(C2=NC(=Cc3ccccc3OC)C(=O)O2)cc1 ?
NPYLR7 agonist: 3; NPYLR7 agonist max-min: 5

What do the screens show for `CCCn1cnnc1CN1CC(C(=O)O)CC1=O` (configuration not stated)?
NPYLR7 agonist: 1; NPYLR7 agonist max-min: -2

How did CCOc1nc(-c2cccc(C(F)(F)F)c2)n(-c2cccc(NC(=O)c3ccc(OC)cc3)c2)n1 do in these assays?
NPYLR7 agonist: 2; NPYLR7 agonist max-min: 3

Results for CN1C(=O)C2(CCN(C(=O)[C@@H](N)Cc3cnc[nH]3)CC2)c2ccccc21 ?
NPYLR7 agonist: 2; NPYLR7 agonist max-min: 13

Results for Cn1c2c(c3ccccc31)C[C@H]1C[C@@H]2[C@@H](Oc2ccccn2)CN1c1ccccn1 ?
NPYLR7 agonist: -5; NPYLR7 agonist max-min: 4

Results for COCc1nc2ccccc2n1Cc1c(Cl)cccc1Cl ?
NPYLR7 agonist: 1; NPYLR7 agonist max-min: -3

How did COc1ccc2[nH]cc(CCN3CCOC3=O)c2c1 do in these assays?
NPYLR7 agonist: -11; NPYLR7 agonist max-min: -13

How did N#Cc1cc(Cl)c2c(c1)OCCO2 do in these assays?
NPYLR7 agonist: -1; NPYLR7 agonist max-min: 4

What do the screens show for `CC(C)c1[nH]n(-c2ccc(Cl)cc2)c(=O)c1C1=C([n+]2ccccc2)C(=O)N(c2ccccc2F)C1=O`?
NPYLR7 agonist: 4; NPYLR7 agonist max-min: 3

How did CCSc1nc(N2CCCCC2)c2cnn(CCNC(=O)c3cccs3)c2n1 do in these assays?
NPYLR7 agonist: 2; NPYLR7 agonist max-min: 0

What do the screens show for `CC(=O)Nc1ccc(OCC(=O)N(CC(F)(F)F)C(C)C2CC2)cc1` (configuration not stated)?
NPYLR7 agonist: 3; NPYLR7 agonist max-min: 1

What do the screens show for `O=C1C2(c3ccccc3)CN(CCCO)CC1(c1ccccc1)CN(CCCO)C2`?
NPYLR7 agonist: -1; NPYLR7 agonist max-min: -9

What do the screens show for `CC(C)Cc1nc(N2CCN(C(=O)c3ccccc3Br)CC2)c2c(-c3cccc(C(F)(F)F)c3)noc2n1`?
NPYLR7 agonist: 23; NPYLR7 agonist max-min: 30
